# Screening data as filed in PubChem BioAssay.
# KCNQ2 block: KCNQ2 channel blockers in CHO-K1 cells – cell-based, FluxOR thallium flux, B-score, primary screen (AID 2156) | O88943 | 20 min; stronger effect = lower value; only compounds with negative scores are shown here; some inactives read as strong as hits | B-score at 10 µM | 1.1% of 310,000 active;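 active = fluorescence ratio B-score at most minus 3 library SDs, with starting brightness B-score within 2 library SDs, cut at about -5.5 in these data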
# Target sequence (O88943 whole entry, looked up): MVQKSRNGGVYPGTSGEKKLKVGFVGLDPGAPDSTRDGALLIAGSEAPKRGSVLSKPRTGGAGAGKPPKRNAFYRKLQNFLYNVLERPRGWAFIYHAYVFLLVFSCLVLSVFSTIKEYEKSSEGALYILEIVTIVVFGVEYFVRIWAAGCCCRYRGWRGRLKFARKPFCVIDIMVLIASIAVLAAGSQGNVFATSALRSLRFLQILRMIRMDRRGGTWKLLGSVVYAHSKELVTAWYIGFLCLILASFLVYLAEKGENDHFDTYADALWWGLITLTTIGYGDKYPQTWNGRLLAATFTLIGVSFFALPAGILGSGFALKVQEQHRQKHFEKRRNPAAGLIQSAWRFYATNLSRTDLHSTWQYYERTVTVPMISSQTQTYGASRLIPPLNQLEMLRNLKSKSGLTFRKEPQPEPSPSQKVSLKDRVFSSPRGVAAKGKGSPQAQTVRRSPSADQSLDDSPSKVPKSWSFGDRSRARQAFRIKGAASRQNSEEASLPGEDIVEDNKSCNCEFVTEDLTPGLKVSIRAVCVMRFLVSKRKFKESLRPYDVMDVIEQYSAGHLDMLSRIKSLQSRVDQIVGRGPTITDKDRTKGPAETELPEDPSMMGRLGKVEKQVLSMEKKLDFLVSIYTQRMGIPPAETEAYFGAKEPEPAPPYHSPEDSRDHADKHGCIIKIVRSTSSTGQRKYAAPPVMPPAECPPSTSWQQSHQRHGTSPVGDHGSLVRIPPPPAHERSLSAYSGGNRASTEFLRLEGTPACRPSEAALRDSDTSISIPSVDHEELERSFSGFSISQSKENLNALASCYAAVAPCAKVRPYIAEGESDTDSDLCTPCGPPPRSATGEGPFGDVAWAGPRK
# KCNQ2 block baseline: also measured in KCNQ2 block; calls as there; B-score; measured here: initial fluorescence intensity artifact check;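 brightness before thallium and not channel activity; 0 = typical well and far values either way flag optical interference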
# Numbers without * were called inactive; i = inactive.
# The line under a structure holds: KCNQ2 block, KCNQ2 block baseline
> COc1ccc(C(C(=O)NC2CCCC2)N(C(=O)c2ccoc2C)c2ccccc2)cc1 (stereo unspecified)
→ i, 1.4
> Oc1ccc(/C=C/c2cnccn2)cc1
→ i, 1.6
> O=C1/C(=C/c2ccc(N3CCOCC3)o2)SC(=Nc2ccccc2)N1CCc1c[nH]c2ccccc12
→ i, 8.7
> O=C(NCc1nc(-c2ccccc2)no1)Nc1ccc(F)cc1
→ i, 0.13
> O=C1C(=O)N(Cc2cccnc2)C(c2cccc([N+](=O)[O-])c2)/C1=C(/O)c1ccc2c(c1)OCO2 (stereo unspecified)
→ i, 0.5
> COc1cccc(C(C(=O)NCc2ccco2)N(Cc2ccco2)C(=O)Cn2nnc3ccccc32)c1 (stereo unspecified)
→ i, 0.68
> O=C(O)c1ccccc1Nc1ccc([N+](=O)[O-])cc1C(=O)O
→ i, 0.06
> O=C(Nc1nc(-c2cccs2)cs1)c1ccc(Cl)s1
→ i, -0.55
> COc1cc2c(cc1OC)CN(c1nc(-c3cccnc3)nc3ccccc13)CC2
→ i, 0.85
> COc1ccccc1C(=O)Nc1ccc2nc(SCC(=O)N(C)C)sc2c1
→ i, -0.5
> O=C(COc1ccc([N+](=O)[O-])cc1)N/N=C/c1ccccn1
→ i, 1.3
> COC(=O)c1ccc(CSc2nnc3c(Cl)cc(Cl)cn23)o1
→ i, 0.06
> O=C(CN1CCOCC1)Nc1ccc(OCc2ccccc2)cc1
→ i, -0.43
> CC(=O)Oc1c(/C=C(\C#N)C(N)=O)[nH]c2ccccc12
→ i, 2.9
> CC(/C=C/C=C/c1ccccc1)=N\NC(=O)c1cccnc1
→ i, 0.96
> O=C(c1cc2ccccc2oc1=O)N1CCN(c2ncccn2)CC1
→ i, 1.9
> CCOc1ccc(OCC(=O)N2CCC3(CC2)CC(=O)c2ccccc2O3)cc1
→ i, -0.71
> CCOC(=O)c1c(-c2ccc(OC)cc2)csc1NC(=O)CCN1C(=O)c2ccccc2C1=O
→ i, 0.05
> Cc1ccc(S(=O)(=O)N2CCN(C(=O)CSc3nncs3)CC2)cc1
→ i, 0.03
> CCOC(=O)[C@@H]1[C@H]2COc3ccc(Br)cc3[C@@H]2N2C(=O)N(c3ccccc3)C(=O)[C@]12C
→ i, -1

# Rewritten bar-delimited: 4 of the compounds above
Compound | KCNQ2 block | KCNQ2 block baseline
CCOc1ccc(OCC(=O)N2CCC3(CC2)CC(=O)c2ccccc2O3)cc1 | i | -0.71
CCOC(=O)c1c(-c2ccc(OC)cc2)csc1NC(=O)CCN1C(=O)c2ccccc2C1=O | i | 0.05
Cc1ccc(S(=O)(=O)N2CCN(C(=O)CSc3nncs3)CC2)cc1 | i | 0.03
CCOC(=O)[C@@H]1[C@H]2COc3ccc(Br)cc3[C@@H]2N2C(=O)N(c3ccccc3)C(=O)[C@]12C | i | -1

# Next section:
# The line under a structure holds: KCNQ2 block, KCNQ2 block baseline
> S=C(Nc1ccccc1Cl)N1CCOCC1
→ i, -0.71
> Cc1cccc(NC(=O)/C(C#N)=C/c2ccc(F)cc2)n1
→ i, -0.65
> CCOC(=O)c1nn(-c2ccc(Cl)cc2)c(C)cc1=O
→ i, 0.41
> CN(C)c1ccc(CC2C(=O)Nc3ccccc32)cc1 (stereo unspecified)
→ i, 0.07
> O=C(NNc1c(F)c(F)cc(F)c1F)c1ccc(Cl)nc1
→ i, 3.5
> O=C(NCC1CCCO1)c1ccc2c(=O)n(-c3ccc(F)cc3)c(=S)[nH]c2c1 (stereo unspecified)
→ i, -2
> CCCN1CCc2c(sc3nc(SCC)n(-c4ccccc4)c(=O)c23)C1
→ i, 0.1
> NC(=O)C1(NC(=O)[C@@H]2CC3(CC(c4cccc(NC(=O)[C@@H]5CCC(=O)N5)c4)=NO3)CN2C(=O)c2ccccc2)CC1 (stereo partly specified)
→ i, -0.13
> CCN(CC)C(=O)Oc1nnc(SC(C)C)n1-c1ccc(Cl)cc1
→ i, 0.43
> O=C(CNc1c(Br)cc(Br)cc1Br)NN=C1CCCCC1
→ i, 1.8
> CCO[C@@H]1OC(C(=O)N2CCN(Cc3ccccc3)CC2)=C[C@H](c2ccccc2)[C@H]1CCCO
→ i, -0.17
> C/C(=N\NC(=O)COc1cc(C)cc(C)c1)c1ccc(N2CCOCC2)cc1
→ i, 0.14
> NC(N)=N/N=C/c1ccccc1
→ i, -0.28
> O=C(c1ccc(NS(=O)(=O)c2ccc(F)cc2)cc1)N1CCN(c2ccccc2O)CC1
→ i, -0.6
> COc1ccccc1C(=O)Nc1ccc2nc3n(c(=O)c2c1)CCCC3
→ i, -0.22
> CN1c2ccccc2-c2nc3ccccc3n2C1c1ccccn1 (stereo unspecified)
→ i, -2.4
> Cc1noc(C)c1CSc1nnc2ccccn12
→ i, 0.86
> CCOc1cccc2cc(-c3csc(NC(=O)CCC(=O)N4CCC(C)CC4)n3)c(=O)oc12
→ i, -0.09
> CC(NC(=O)c1cccs1)C(=O)NC1=NCCS1 (stereo unspecified)
→ i, 0.6
> COCCNC(=O)CN(C(=O)CCC(=O)Nc1nccs1)c1ccccc1OC
→ i, -0.01

# One compound at a time, from the list above:
# Results for NC(=O)C1(NC(=O)[C@@H]2CC3(CC(c4cccc(NC(=O)[C@@H]5CCC(=O)N5)c4)=NO3)CN2C(=O)c2ccccc2)CC1 (stereo partly specified) = KCNQ2 block: i; KCNQ2 block baseline: -0.13
# Results for COc1cccc(C(C(=O)NCc2ccco2)N(Cc2ccco2)C(=O)Cn2nnc3ccccc32)c1 (stereo unspecified) = KCNQ2 block: i; KCNQ2 block baseline: 0.68

# (continued)
# The line under a structure holds: KCNQ2 block, KCNQ2 block baseline
> COC(=O)c1cc(CN2CCN(c3ccccc3)CC2)ccc1O
→ i, -0.4
> Cc1c(Br)cccc1NC(=O)c1sccc1-n1cccc1
→ i, -0.03
> C=CCOc1ccc(C(c2c(C(=O)O)[nH]c3ccccc23)c2c(C(=O)O)[nH]c3ccccc23)cc1
→ i, 1.2
> Cc1ccc(CNC(=O)c2ccccc2NS(C)(=O)=O)cc1
→ i, -1.5
> COc1cc(C(=O)NCC(=O)N/N=C/c2cccnc2)cc(OC)c1OC
→ i, 0.79
> Cc1[nH]nc2c1C(CC(C)C)C(C#N)=C(N)O2 (stereo unspecified)
→ i, -1.7
> CC1CCCN(c2nc(-c3cccnc3)nc3scc(-c4ccccc4)c23)C1 (stereo unspecified)
→ i, -1.5
> C=CCn1c(-c2csc(-c3ccc(OC)c(OC)c3)n2)n[nH]c1=S
→ i, -0.11
> O=C(CSc1n[nH]c(-c2ccccc2)n1)Nc1ccc(N2CCOCC2)cc1
→ i, 1.7
> COc1ccc(C)cc1NC(=O)CCS(=O)(=O)c1ccc2c(c1)CCN2C(C)=O
→ i, -0.17
> O=C(CSCc1nc2ccccc2[nH]1)N1CCN(c2ccc(F)cc2)CC1
→ i, 1.1
> CN(C)C(=S)Nn1c(-c2ccccc2)nc2ccccc2c1=O
→ i, -0.1
> O=C(CN1CCCN(S(=O)(=O)c2ccc(F)cc2)CC1)Nc1cccc(F)c1
→ i, 0.52
> Cc1ccc(OCC(=O)Nc2ccc3oc(=O)ccc3c2)cc1C
→ i, -1.1
> CN(C)CCC1c2ccc(Cl)cc2CCc2cccnc21 (stereo unspecified) (tested in a mixture with another compound)
→ i, -0.96
> COc1cc(/C=N\NC(=O)CC(=O)NCCc2ccccc2)ccc1O
→ i, 0.06
> Cc1ccccc1C(=O)Nc1ccnn1C1CCN(C2CCSCC2)CC1
→ i, 1.5
> O=C(c1ccco1)N1CCN=C1SCc1c(F)cccc1Cl
→ i, -2.2
> CS(=O)(=O)N(Cc1ccccc1)c1ccc(C(=O)NCC2CCCO2)cc1 (stereo unspecified)
→ i, 1.2
> CCCC1(C(=O)OCC)NC(c2ccc(N(C)C)cc2)C2C(=O)N(c3ccc(OCC)cc3)C(=O)C21 (stereo unspecified)
→ i, -0.02

# The line under a structure holds: KCNQ2 block, KCNQ2 block baseline
> O=C(NC1CCCCCC1)c1cccc(N2CCCC2=O)c1
→ i, -0.09
> CCCn1c2c(c(O)c(C(=O)Nc3ncccc3C)c1=O)CCCC2
→ i, -1.7
> Oc1ccc(C=Nc2cccc3ncccc23)c(O)c1
→ i, 0.11
> CCS(=O)(=O)N1CCC(C(=O)N2CCOCC2)CC1
→ i, -0.82
> COc1cc(NC(=O)c2noc(C)c2[N+](=O)[O-])c(OC)cc1Cl
→ i, -0.27
> CCc1ccc(CNC(=O)C2Cc3cc(S(=O)(=O)N4CCCC4)ccc3N2C(C)=O)cc1 (stereo unspecified)
→ i, -0.81
> Cc1ccc2c(c1)N(CC(=O)N(Cc1ccccn1)Cc1ccco1)C(=O)C(C(C)C)O2 (stereo unspecified)
→ -7.5*, 0.77*
> COC(=O)C1C(c2ccccc2)C(C(=O)OCc2ccco2)C1c1ccccc1 (stereo unspecified)
→ i, 1.1
> Cc1cc(=O)[nH]c(SCn2nnc3ccccc3c2=O)n1
→ i, 0.35
> COc1cc2nc(CN(C)Cc3nc4ccccc4c(=O)[nH]3)[nH]c(=O)c2cc1OC
→ i, -0.61
> O=C(CN1CCN(c2ccccn2)CC1)Nc1ccc(Cl)c(C(F)(F)F)c1
→ i, 1.2
> COc1cccc(C(=O)NCc2nnc(SCC(=O)Nc3nccs3)n2-c2cccc(C)c2)c1
→ i, -1.1
> O=C(NCCCn1ccnc1)c1cc2c(s1)CCCC2
→ i, 8.3
> COc1ccc(NS(=O)(=O)NC(=O)c2cn(C)c3ccccc23)cc1
→ i, 3.7
> CC(C)CC(=O)Nc1ccccc1-c1nnn(CC(=O)N2CCc3ccccc3C2)n1
→ i, -0.77
> C=CCn1c(COc2ccccc2)nnc1SCC(=O)Nc1ccc(S(N)(=O)=O)cc1
→ i, 1.6
> O=C(NCCCN1CCN(c2ccccc2)CC1)C1CCCN(c2ncnc3c2nc2n3CCCCC2)C1 (stereo unspecified)
→ i, 0.5
> O=C(Nc1ccc(N2CCCC2)cc1)c1cccc(F)c1
→ i, -0.4
> O=C(CSc1nnc(NCc2ccccc2)s1)c1ccco1
→ i, -1.9
> Cn1ncc2cc(NC(N)=S)ccc21
→ i, 0.61

# The line under a structure holds: KCNQ2 block, KCNQ2 block baseline
> COc1ccc(/C=C(\NC(=O)c2ccc(OCC(C)C)cc2)C(=O)OCc2ccco2)cc1
→ i, 0.3
> CN(C)c1cccc(C(=O)N(C)C2CCCN(Cc3ccccc3F)C2)c1 (stereo unspecified)
→ i, 0.12
> CC(C)C[C@H](NC(=O)c1nc[nH]c1C(=O)N1CCN(C(=O)OC(C)(C)C)CC1)C(=O)OC(C)(C)C
→ i, -1.2
> Cc1nc2c(sc(=S)n2Cc2ccco2)c(=O)n1CC(=O)Nc1cc(F)ccc1F
→ i, 1.8
> N#CN(Cc1ccccc1)Cc1ccccc1
→ i, -0.81
> Cc1c(Cc2ccccc2)c(=O)oc2c(C)c(OCC(=O)N3CCC(C(=O)O)CC3)ccc12
→ i, 0.31
> O=C(NCCCNC(=O)c1ccc(Cl)cc1Cl)c1ccco1
→ i, 1
> C/C(O)=C\c1nc(=O)c2c(C)cc(C)nc2n1-c1ccccc1
→ i, 1.1
> O=c1c(Oc2ccccc2F)coc2cc(OCc3cnn(-c4ccccc4)c3)ccc12
→ i, -0.67
> CC1CC(C)(C)N2C(=O)C3(Nc4ccccc4S3)c3cccc1c32 (stereo unspecified)
→ i, -0.93
> CCc1ccc(Nc2nnc(SCC(=O)Nc3ccc(C(=O)O)cc3)s2)cc1
→ i, 0.3
> Clc1ccc(COn2nnc3ccccc32)c(Cl)c1
→ i, 0.01
> CCN(CC)C(=O)COc1coc(CN2CCN(c3ccc(F)cc3)CC2)cc1=O
→ i, 0.1
> O=C(Nc1cccc(O)c1)c1cnn2cccnc12
→ i, -0.42
> O=[N+]([O-])c1ccc(N2CCN(Cc3ccc(Br)o3)CC2)cc1
→ i, 2
> Cc1ccc(C(=O)NCCN2C3=NC[C@@H](Cc4ccccc4)N3C[C@H]2Cc2ccc(O)cc2)cc1Br
→ i, 0.05
> O=c1c2ccccc2nc(SCCN2CCCCC2)n1CCc1ccccc1
→ i, 0.34
> CCn1c(=O)cc(OCC(=O)N2CCCC2)c2ccccc21
→ i, -1.9
> CS(=O)(=O)N(Cc1ccc(C(=O)N2CCc3ccccc3C2)cc1)c1ccccc1
→ i, 1
> Nc1nc2sc3c(c2cc1C(=O)NCC(=O)O)CCCC3
→ i, 0.02

# The line under a structure holds: KCNQ2 block, KCNQ2 block baseline
> CC(=O)N(CCOc1ccccc1)CCOc1ccccc1
→ i, 0.77
> N#Cc1ccc(CSc2nnc(-c3ccccn3)n2-c2ccccc2)cc1
→ i, 0.03
> O=S(=O)(Cc1ccccc1)Nc1cccc(Br)c1
→ i, -0.09
> O=C(CBr)N1CCc2ccccc2C(c2ccccc2)C1 (stereo unspecified)
→ i, 1.7
> COc1ccc2cc3cc(C(=O)NCCCN4CCc5ccccc5C4)sc3nc2c1
→ i, -0.06
> CC1(C)CC(=O)c2cc(C(=O)NCc3ccco3)c(=O)n(-c3ccc(Cl)cc3)c2C1
→ i, -0.92
> O=C(Nc1ccc(F)cc1F)c1ccc2ncsc2c1
→ i, -0.18
> N=C1/C(=C\c2coc3ccc(O)cc3c2=O)C(=O)N=C2SC=CN12
→ i, 42
> O=S(=O)(c1ccc(-c2ccccc2)cc1)N1CCCCC1
→ i, 0.08
> O=C(NCCN1CCOCC1)c1cc(-c2cccc(O)c2)on1
→ i, 0.88
> COC(=O)C1=CN(c2ccc(F)c(F)c2)C=C(C(=O)OC)C1c1ccc([N+](=O)[O-])cc1
→ i, -0.56
> Cc1nc2ccccc2c(=O)n1CCCn1ccnc1
→ i, 1.1
> COc1ccc(NC(=O)C2CCCN2S(=O)(=O)c2cccc3cccnc23)c(OC)c1 (stereo unspecified)
→ i, -0.56
> COc1ccccc1CNC(=O)c1cc(-c2cccnc2)nc2ccccc12
→ i, -0.37
> OCC1(Cc2ccccc2)CCCN(Cc2ccn[nH]2)C1 (stereo unspecified)
→ i, 0.8
> CCCCCCCC1(C)NC(=O)NC1=O (stereo unspecified)
→ i, -0.03
> N#CCCn1nc(-c2ccccc2)cc1Nc1ccccc1NC(=O)c1cccs1
→ i, -0.11
> CC(C)c1ccc(N=Cc2c(O)c3ccccc3oc2=O)cc1
→ i, -0.08

# These rows are one share of the data. The share of hits here may be higher or lower than overall.
